Assay outcomes as filed in PubChem.
Calb FLC – affects C. albicans growth with fluconazole; C. albicans CaCi-2 (fluconazole-resistant clinical isolate) + fluconazole, Alamar Blue growth, 48 h; growth inhibition, % (test concentration not listed); hit rate 0.57% among 300,000;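 active = most replicates above 75%; inconclusive = exactly half above 75%; inactive = most below 75%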;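 also: all wells also contain fluconazole at 8 µg/ml as a sub-toxic cotreatment; 0% = median of DMSO wells and 100% = median of geldanamycin control wells; wells of about 8 µL received 7.5 nL stock; the first replicate is given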
Beta apoptosis – blocks beta cell apoptosis. hit rate 0.8% among 300,000. INS-1E cytokine-induced death, ATP luminescence, 48 h; percent of positive-control rescue, neutral wells zero. protection from apoptosis, % (concentration not given with the values);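 active = all replicates at 75% or more, or half of them and the mean; inconclusive = half reach 75% but not the mean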;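 also: 0% = cytokine-treated negative control wells and 100% = positive control rescue; higher means more ATP so stronger rescue from cytokine killing; wells of about 40 µL received 100 nL stock; the first replicate is given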
UCH37 DUB inh – blocks the human deubiquitinase UCH37. Q9Y5K5. purified proteasome/UCH37, Ub-AMC cleavage fluorescence. inhibition, % (no concentration beside the values). hit rate 0.33% among 330,000;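 active = mean of two replicates above 20%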;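 also: 0% = compound-free wells with enzyme and 100% = wells lacking proteasome; stock transfer was 100 nL into about 20 µL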
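Assay system: Proteasome-bound UCH37. Buffer or medium: pH 7.4 Tris-HCl (50 mM) with ovalbumin, ATP-MgCl2, DTT. Incubation: 30 min preincubation with enzyme, 25 min cleavage at room temperature. Measured by: fluorescence, ex 355 nm, em 460 nm. Read-out basis: percent inhibition. Control set: wells without proteasome as full block, compound-free enzyme plus substrate as uninhibited.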
T cruzi repl – T. cruzi replication inhibition; T. cruzi beta-gal in NIH3T3, luminescence, 90 h; inhibition, % (no concentration beside the values); hit rate 1.4% among 300,000;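 active = mean inhibition across valid replicates above about 55%, limit read from the data; inconclusive = mean below that limit but half or more replicates reach it; inactive = mean below it, under half of replicates reach it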;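 also: signal also drops with host cell toxicity which is not excluded here; 0% = plate median of DMSO wells and 100% = zero luminescence signal; higher percent means less beta-gal luminescence so fewer parasites; stock transfer was 50 nL into about 50 µL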
RanGTP-Impb inh – disruptors of Ran-importin-beta complex formation – biochemical, FRET, CFP-Ran, YFP-importin-beta, homogeneous, primary screen | cell-free CFP-Ran/YFP-importin-beta FRET ratio | inhibition, % (no concentration beside the values) | hit rate 1.1% among 300,000 | AID 2216;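 active = most replicates above 15%; inconclusive = exactly half above 15%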;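 also: 0% = DMSO wells and 100% = Ran loaded with GDP instead of GTP; wells of about 40 µL received 100 nL stock; the first replicate is given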
B2AR ag – activates human beta-2 adrenergic receptor causing internalization; P07550; Am2.2-beta2AR cells, FAP receptor internalization, flow cytometry; reference of the scale not given here; response, % (concentration not given with the values); hit rate 0.43% among 340,000;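 active = response above a set limit, near 3 SD of response in nonfluorescent compounds, cut at about 42% in these data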;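 also: stock transfer was 100 nL into about 11 µL; a reference agonist was the positive control; negative values mostly stem from fluorescent compounds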
A1 inh – inhibitors of the anti-apoptotic protein A1, read as caspase activation. MEF A1-2A-BIM cells, Caspase-Glo 3/7 luminescence, 3 h; percent of clofoctol response, vehicle zero. caspase activation, % (no concentration beside the values). hit rate 0.066% among 330,000;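 active = over half of replicate activation scores above 10%, or exactly half above 10 with the replicate mean above 10; inconclusive = replicate mean below 10 yet half the replicates above 10; inactive = over half of replicates below 10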;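 also: wells of about 30 µL received 50 nL stock; many hits fall short of the cut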
LANA-H2B inh – blocks KSHV LANA binding to histone H2A/H2B; Q9QR71; hit rate 0.6% among 320,000; cell-free LANA-H2A/H2B peptide, fluorescence polarization; AID 2629; inhibition, % (no concentration beside the values); in the data active = inhibition mostly above about 10%, no sharp cut-off; inactive = mostly below about 6.7%;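 also: stock transfer was 7.5 nL into about 10 µL; 0% = median of vehicle wells and 100% = median of positive control wells; one replicate is shown; the record names a cut of 25% in any replicate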
Target sequence (Q9QR71 whole entry, looked up): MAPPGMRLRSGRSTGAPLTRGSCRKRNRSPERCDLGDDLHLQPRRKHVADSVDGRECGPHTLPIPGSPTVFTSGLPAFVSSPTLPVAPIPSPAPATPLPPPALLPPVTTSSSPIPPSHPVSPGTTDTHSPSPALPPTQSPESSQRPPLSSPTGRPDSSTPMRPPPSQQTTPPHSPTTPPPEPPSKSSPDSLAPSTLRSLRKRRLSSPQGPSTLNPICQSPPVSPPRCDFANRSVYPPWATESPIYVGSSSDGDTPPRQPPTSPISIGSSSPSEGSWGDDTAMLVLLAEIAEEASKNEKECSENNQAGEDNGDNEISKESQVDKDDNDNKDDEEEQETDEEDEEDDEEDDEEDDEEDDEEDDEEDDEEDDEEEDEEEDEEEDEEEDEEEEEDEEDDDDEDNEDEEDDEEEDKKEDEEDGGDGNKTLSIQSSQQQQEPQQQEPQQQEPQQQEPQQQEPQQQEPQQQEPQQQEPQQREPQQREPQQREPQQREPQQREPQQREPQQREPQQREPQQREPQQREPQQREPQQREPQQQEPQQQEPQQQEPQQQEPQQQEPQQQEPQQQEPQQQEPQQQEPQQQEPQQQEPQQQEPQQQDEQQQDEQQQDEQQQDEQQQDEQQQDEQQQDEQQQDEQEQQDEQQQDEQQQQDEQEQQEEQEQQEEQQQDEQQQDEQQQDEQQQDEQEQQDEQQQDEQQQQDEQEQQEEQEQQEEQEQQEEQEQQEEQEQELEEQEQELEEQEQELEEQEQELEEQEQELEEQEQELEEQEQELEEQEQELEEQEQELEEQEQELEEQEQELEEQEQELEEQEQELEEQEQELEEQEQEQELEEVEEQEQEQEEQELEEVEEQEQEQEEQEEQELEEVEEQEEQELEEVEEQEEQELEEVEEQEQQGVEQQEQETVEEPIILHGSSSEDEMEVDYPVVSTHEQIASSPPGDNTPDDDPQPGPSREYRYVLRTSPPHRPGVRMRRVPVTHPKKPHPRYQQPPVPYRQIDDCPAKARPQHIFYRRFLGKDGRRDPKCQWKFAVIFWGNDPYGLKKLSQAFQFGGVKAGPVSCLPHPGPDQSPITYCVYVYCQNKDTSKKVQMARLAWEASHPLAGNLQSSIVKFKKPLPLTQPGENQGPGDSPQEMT
* marks the source's active call; other numbers are inactive results. Compounds were not picked by outcome; 4.3% or so of the library scored in one or more.

COc1cccc(C2CC(c3cccs3)=NN2C(=O)CSc2nc3ccccc3s2)c1OC (stereo unspecified) was read as Calb FLC 6, Beta apoptosis -3, UCH37 DUB inh -37, T cruzi repl 13, RanGTP-Impb inh 2.4, B2AR ag -10, A1 inh -0.2 and LANA-H2B inh 8.4.
COc1ccc(-c2cc(=O)oc3cc(O)ccc23)cc1 was read as Calb FLC 7, Beta apoptosis -11, UCH37 DUB inh -9.4, T cruzi repl -14, RanGTP-Impb inh -1.7, B2AR ag 7, A1 inh -0.2 and LANA-H2B inh -3.1.
For Cc1cc(C)c(NC(=O)CNC(=O)[C@@H]2CCCN2C(=O)c2cccs2)c(C)c1 the results were Beta apoptosis -3, UCH37 DUB inh 1.2, B2AR ag 1, A1 inh 0.7 and LANA-H2B inh -0.6.
CN(C(=O)CN1C(=O)NC(c2ccccc2)(c2ccccc2)C1=O)C1CCS(=O)(=O)C1 (stereo unspecified) was read as Beta apoptosis 0, UCH37 DUB inh 3.3, B2AR ag 0 and A1 inh 0.2.
`O=C(c1ccccn1)N1CCN(S(=O)(=O)c2cccc(Br)c2)CC1` gave Beta apoptosis -2, UCH37 DUB inh 1.3, B2AR ag 7, A1 inh 0.3 and LANA-H2B inh 4.0.
`Cc1ccc(-c2nnc(Nc3ccc4c(c3)OCO4)c3ccccc23)cc1S(=O)(=O)NCCO` gave Calb FLC 43, Beta apoptosis 5, UCH37 DUB inh 4.7, T cruzi repl 18, RanGTP-Impb inh 0.2, B2AR ag -4, A1 inh -1.1 and LANA-H2B inh -0.4.
`Cc1ccc(CSc2nnc(SCC(=O)N/N=C/C=C/c3ccccc3[N+](=O)[O-])s2)cc1` gave Calb FLC 6, Beta apoptosis 0, T cruzi repl 10, RanGTP-Impb inh -1.1, B2AR ag 9, A1 inh 0.4 and LANA-H2B inh -5.2.
Screening Cc1ccc(CNC(=O)Nc2ccccc2)cc1 returned Calb FLC -7, Beta apoptosis -1, UCH37 DUB inh 0.6, T cruzi repl -5, RanGTP-Impb inh 0.3, B2AR ag 7, A1 inh -8.0 and LANA-H2B inh 2.1.
CCOc1ccc2c(C)c(C(=O)O)oc2c1OCC was read as Calb FLC 5, Beta apoptosis -4, UCH37 DUB inh -3.1, T cruzi repl -3, RanGTP-Impb inh -2.7, B2AR ag 2, A1 inh 0.2 and LANA-H2B inh 3.2.
`CN(CC(=O)Nc1cccc(F)c1)C(=O)Cn1cnc2c1c(=O)n(C)c(=O)n2C` gave Calb FLC 1, Beta apoptosis -2, UCH37 DUB inh -0.3, T cruzi repl -2, RanGTP-Impb inh -3.5, B2AR ag 2, A1 inh -0.3 and LANA-H2B inh 1.2.
Screening COc1cccc(CN2CC(C(=O)NCCCc3ccc(C)cc3)CCC2=O)c1 (stereo unspecified) returned Calb FLC 21, Beta apoptosis 4, UCH37 DUB inh 4.2, T cruzi repl -22, RanGTP-Impb inh -0.9, B2AR ag -7, A1 inh 0.7 and LANA-H2B inh 5.6.
For CCOC(=O)c1sc(NC(=O)Nc2ccc(Cl)cc2)cc1C the results were Calb FLC -12, Beta apoptosis 89*, T cruzi repl 65*, RanGTP-Impb inh -0.9, B2AR ag 5, A1 inh 0.8 and LANA-H2B inh -1.5.
`COc1cc(F)ccc1CN1CCC(C(=O)Nc2ccc(Oc3ccccc3)nc2)CC1` gave Calb FLC -20, Beta apoptosis -2, UCH37 DUB inh 1.6, T cruzi repl -5, RanGTP-Impb inh 1.2, B2AR ag -9, A1 inh 0.8 and LANA-H2B inh -2.8.
Screening CC(C)(C)C(=O)Nc1ccccc1N1CCN(C(=O)c2ccc(Cl)cc2)CC1 returned Calb FLC 7, Beta apoptosis 1, UCH37 DUB inh 4.4, T cruzi repl 16, RanGTP-Impb inh -4.9, B2AR ag 0, A1 inh -0.2 and LANA-H2B inh -4.7.
For CC1CC(C)CN(CCCNC(=O)CN2C(=O)CSc3ccc(S(=O)(=O)N4CCCCC4)cc32)C1 (stereo unspecified) the results were Calb FLC 25, Beta apoptosis 2, UCH37 DUB inh -1.5, T cruzi repl 9, RanGTP-Impb inh inconclusive, B2AR ag -5, A1 inh 0.1 and LANA-H2B inh -1.7.
Screening COc1ccc(-c2cc(=O)c3cc(OC)ccc3[nH]2)cc1 returned Calb FLC -14, Beta apoptosis 19, UCH37 DUB inh -37, T cruzi repl -13, RanGTP-Impb inh -0.7, B2AR ag -1, A1 inh -9.9 and LANA-H2B inh 0.8.
Screening CCCn1nc(NC(=O)c2cccs2)c2cc3cccc(C)c3nc21 returned Calb FLC 20, Beta apoptosis 8, UCH37 DUB inh -20, T cruzi repl 38, RanGTP-Impb inh 95*, B2AR ag -7, A1 inh -0.7 and LANA-H2B inh -3.6.
`COc1ccc(S(=O)(=O)N2CCN(C(=O)C3CC3)CC2)cc1` gave Calb FLC -1, Beta apoptosis 0, UCH37 DUB inh 4.4, T cruzi repl -5, RanGTP-Impb inh 5.1, B2AR ag 3, A1 inh -0.2 and LANA-H2B inh -3.3.
For O=C(c1sccc1Cl)N1CCN(Cc2ccc3c(c2)OCO3)CC1 the results were Calb FLC 0, Beta apoptosis 2, UCH37 DUB inh 3.3, T cruzi repl -1, RanGTP-Impb inh -1.9, B2AR ag 4, A1 inh 1.2 and LANA-H2B inh 8.5.
For COC(=O)c1c(NC(=O)CCN2CCOCC2)sc2c1CCCC2 the results were Calb FLC 6, Beta apoptosis -2, UCH37 DUB inh 1.6, T cruzi repl 12, RanGTP-Impb inh 0.2, B2AR ag -6, A1 inh 0.6 and LANA-H2B inh 8.1.
O=C(Cc1cccc2ccccc12)OCn1nnc2ccccc2c1=O was read as Calb FLC 4, Beta apoptosis 2, UCH37 DUB inh 2.7, T cruzi repl -36, RanGTP-Impb inh 2.5, B2AR ag -9, A1 inh -0.2 and LANA-H2B inh 2.0.
For Cc1cc2nc(-c3ccc(SCC(=O)N4CCc5ccccc54)nc3)[nH]c2cc1C the results were Calb FLC -3, Beta apoptosis 15, UCH37 DUB inh -63, T cruzi repl 44, RanGTP-Impb inh -2.7, B2AR ag 5, A1 inh -1.6 and LANA-H2B inh 1.9.
For CCOc1ccc(-n2c(=O)c3c4c(sc3n(CC(=O)NCc3ccco3)c2=O)CCC4)cc1 the results were Calb FLC 0, Beta apoptosis -2, UCH37 DUB inh 4.4, T cruzi repl 16, RanGTP-Impb inh -4.3, B2AR ag 0, A1 inh -1.4 and LANA-H2B inh -6.6.
For CCc1ccc(S(=O)(=O)NCc2csc(-c3cccnc3)n2)s1 the results were Calb FLC 5, Beta apoptosis -4, UCH37 DUB inh 2.2, T cruzi repl 39, RanGTP-Impb inh -6.1, B2AR ag -12, A1 inh -0.4 and LANA-H2B inh -7.4.
For O=C(NCCC(=O)N1CCN(S(=O)(=O)c2ccccc2F)CC1)Nc1ccccc1 the results were Beta apoptosis -3, UCH37 DUB inh -1.4, B2AR ag 4, A1 inh 0.3 and LANA-H2B inh -1.6.
Screening CC(C)[C@H](Nc1nc(-c2ccccc2)nc2c1oc1ccccc12)C(=O)O returned Calb FLC -1, Beta apoptosis 2, UCH37 DUB inh 2.3, T cruzi repl -6, RanGTP-Impb inh -0.5, B2AR ag -4, A1 inh 0.7 and LANA-H2B inh -3.2.
Cc1cc(C)n(-c2nc(NCCN(C)C)c3c4c(sc3n2)CCCC4)n1 was read as Calb FLC 80*, Beta apoptosis 112*, UCH37 DUB inh 4.2, T cruzi repl 50, RanGTP-Impb inh 0.7, B2AR ag 38, A1 inh 0.4 and LANA-H2B inh -1.3.
Screening CCOC(=O)CNC(=O)C(CC(C)C)NC(=O)C1CCCCC1 (stereo unspecified) returned Calb FLC 1, UCH37 DUB inh 1.7, T cruzi repl -8, RanGTP-Impb inh 0.1, B2AR ag 1, A1 inh -0.1 and LANA-H2B inh -4.0.
`C#CCOCCOCCOCCNc1nc(N2CCN(C(=O)CCCCCCCCCCNC(=O)[C@H](CO)n3cc(CCCSC)nn3)CC2)nc(N2CCN(C(=O)CCCCCCCCCCNC(=O)[C@H](CCCCN)n3cc(C[C@@H](C)CC)nn3)CC2)n1` gave Calb FLC 1, Beta apoptosis 49, T cruzi repl 55*, RanGTP-Impb inh 2.6, A1 inh -0.6 and LANA-H2B inh 3.8.
For O=C(CN1C(=O)C(=O)N(C2CCCC2)C1=O)NCCc1ccc(Cl)cc1Cl the results were Beta apoptosis -8, UCH37 DUB inh -2.1, B2AR ag -2, A1 inh 1.0 and LANA-H2B inh -2.0.
Screening O=C(NCCNC(=O)c1ccccc1Br)c1ccccc1Br returned Calb FLC -4, Beta apoptosis -2, UCH37 DUB inh 2.9, T cruzi repl -11, RanGTP-Impb inh -3.8, B2AR ag 0, A1 inh 1.0 and LANA-H2B inh -5.1.
`CC1(C)CC(=O)C(C=NCCN2CCN(C(=O)c3ccc(F)cc3)CC2)=C(O)C1` gave Calb FLC -4, Beta apoptosis -6, UCH37 DUB inh -0.4, T cruzi repl -5, RanGTP-Impb inh 4.1, B2AR ag 2, A1 inh 0.7 and LANA-H2B inh -0.2.
`CN1C(=O)/C(=C\c2ccc(OC(=O)c3ccco3)cc2)SC1=S` gave Calb FLC -5, Beta apoptosis -6, UCH37 DUB inh 3.0, T cruzi repl -6, RanGTP-Impb inh 3.6, B2AR ag -15, A1 inh -8.7 and LANA-H2B inh 7.2.
COc1ccc(NC(=O)C2CCCN2C(=O)NCc2ccccc2)c(OC)c1 (stereo unspecified) was read as Calb FLC 11, Beta apoptosis -11, UCH37 DUB inh 3.4, T cruzi repl -2, RanGTP-Impb inh -1.4, B2AR ag 0, A1 inh 0.3 and LANA-H2B inh 0.6.
Screening CN(CCNC(=O)c1ccc(CS(=O)(=O)c2c(Cl)cccc2Cl)o1)CCc1ccccc1 returned Calb FLC -5, Beta apoptosis 0, UCH37 DUB inh 2.1, T cruzi repl 29, RanGTP-Impb inh -4.6, B2AR ag -6, A1 inh -0.7 and LANA-H2B inh 2.6.
`COc1ccc(-c2nnc(SC3CCOC3=O)n2C2CCCCC2)cc1OC` (stereo unspecified) gave Calb FLC 9, Beta apoptosis -9, UCH37 DUB inh 0.9, T cruzi repl -2, RanGTP-Impb inh inconclusive, B2AR ag 0, A1 inh 0.4 and LANA-H2B inh 4.2.
`CC(C)CCNC(=O)C1CCC(CNS(=O)(=O)c2cccc3nsnc23)CC1` (stereo unspecified) gave Calb FLC 4, Beta apoptosis 4, UCH37 DUB inh 1.9, T cruzi repl 56*, RanGTP-Impb inh 1.9, B2AR ag -1, A1 inh -1.7 and LANA-H2B inh -4.3.
`O=C(CNC(=O)c1ccccc1C(F)(F)F)N/N=C/c1cccs1` gave Calb FLC -2, Beta apoptosis 1, T cruzi repl -3, RanGTP-Impb inh 0.8, B2AR ag 1, A1 inh -0.5 and LANA-H2B inh 1.9.
For COc1ccc(Br)cc1C(=O)Nc1cccc(C)c1 the results were Calb FLC -8, Beta apoptosis -2, UCH37 DUB inh 0.3, T cruzi repl 13, RanGTP-Impb inh -1.4, B2AR ag -3, A1 inh -1.2 and LANA-H2B inh -3.0.
`Cn1nnnc1Sc1ncnc2scc(-c3ccccc3C(F)(F)F)c12` gave Beta apoptosis -5, UCH37 DUB inh 0.1, B2AR ag -3, A1 inh -1.2 and LANA-H2B inh 1.9.
